Screening data as filed in PubChem.
FEN1 inh – qHTS Assay for the Inhibitors of Human Flap endonuclease 1 (FEN1); actives 0.35% (n = 390,000); Recombinant FEN1 flap cleavage, fluorescence, 15 min; Potency, µM (doses to about 114 µM), for the others: at the top dose activity change, negative = inhibition, hits mostly inhibitors; P39748; note: nearly all actives have a fitted effect of over 65% in size
Target sequence (P39748 whole entry, looked up): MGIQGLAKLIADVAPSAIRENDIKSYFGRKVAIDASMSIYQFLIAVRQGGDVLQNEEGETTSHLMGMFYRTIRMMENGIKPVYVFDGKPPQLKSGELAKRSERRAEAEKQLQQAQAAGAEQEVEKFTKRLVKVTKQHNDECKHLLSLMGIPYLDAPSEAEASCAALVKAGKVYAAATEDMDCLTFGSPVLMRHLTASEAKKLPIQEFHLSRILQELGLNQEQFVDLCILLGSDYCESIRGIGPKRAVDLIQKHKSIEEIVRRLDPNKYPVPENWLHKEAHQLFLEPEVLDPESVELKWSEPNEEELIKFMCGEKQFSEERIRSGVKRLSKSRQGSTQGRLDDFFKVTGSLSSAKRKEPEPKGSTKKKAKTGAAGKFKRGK
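FEN1 at 10 nM preincubated with compounds 15 min at room temperature, then flap DNA substrate added at 50 nM final. Signal read at 0 and 15 min; concentration-response fitted with four-parameter Hill equation.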
TDP1 inh – qHTS Assay for Inhibitors of Tyrosyl-DNA Phosphodiesterase (TDP1); recombinant TDP1, AlphaScreen DNA substrate cleavage; actives 0.28% (n = 350,000); AID 485290, 2010; Potency, µM (top dose mostly 130 µM), without a hit: at the highest dose activity change, negative = inhibition, actives largely listed as inhibitors; Tyrosyl-DNA phosphodiesterase 1 (Homo sapiens), Q9NUW8; note: nearly all actives have a fitted effect of over 40% in size
Target sequence (Q9NUW8 whole entry, looked up): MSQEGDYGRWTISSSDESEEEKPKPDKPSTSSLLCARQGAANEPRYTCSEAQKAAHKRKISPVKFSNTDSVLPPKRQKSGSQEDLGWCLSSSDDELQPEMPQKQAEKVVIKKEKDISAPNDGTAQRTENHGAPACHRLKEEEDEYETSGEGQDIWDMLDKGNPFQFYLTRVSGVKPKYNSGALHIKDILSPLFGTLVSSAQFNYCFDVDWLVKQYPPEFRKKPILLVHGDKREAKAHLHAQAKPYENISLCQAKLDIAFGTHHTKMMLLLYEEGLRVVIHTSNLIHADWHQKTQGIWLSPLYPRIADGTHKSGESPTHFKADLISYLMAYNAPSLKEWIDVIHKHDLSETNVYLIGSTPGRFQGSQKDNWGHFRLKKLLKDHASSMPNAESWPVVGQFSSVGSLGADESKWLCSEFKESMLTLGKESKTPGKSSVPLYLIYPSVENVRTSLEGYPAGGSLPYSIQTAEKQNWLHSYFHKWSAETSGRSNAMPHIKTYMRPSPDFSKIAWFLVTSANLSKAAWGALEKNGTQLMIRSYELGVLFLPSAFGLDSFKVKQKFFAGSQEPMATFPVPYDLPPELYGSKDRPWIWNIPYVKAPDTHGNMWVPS
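Here, a 5' biotin and 3' phosphotyrosine-FITC DNA oligonucleotide reports Tdp1 activity: intact substrate bridges AlphaScreen beads, while cleavage leaves a 3' phosphate and drops signal. All incubations at room temperature.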
* marks the source's active call; other numbers are inactive results; ? = inconclusive; / = not tested or not shown; & = joins results of further samples; [ ] = remark or other dose. Calls come from the whole dose curve; as a rule, active = well fitted inhibition curve with a large enough effect; inconclusive = small, poorly fitted or top-dose-only effect; inactive = no such curve, though single readings can be large or run the other way. % is set by controls: 0 for no effect and ±100 for the full control effect; potency is the fitted concentration of half-maximal effect.

FEN1 inh,TDP1 inh,smiles
-3%,/,COCCNC(=O)c1cccc(OC2CCN(Cc3ccc(C(C)C)cc3)CC2)c1
-4%,7%,COc1cccc(OCC(O)CN2CCOCC2)c1 (stereo not drawn)
8%,3%,CC(C)CC(NC(=O)C1CCC(C)CC1)C(=O)NCc1ccco1 (stereo not drawn)
-10%,1%,O=C(Cn1c(=O)oc2ccccc21)NCc1ccco1
21%,/,COc1cc(C(=O)N2CCN(C3CCCCC3)CC2)cc(OC)c1OC
-23%,1%,CN(Cc1c(C(=O)N/N=C/c2c(F)cccc2Cl)nnn1-c1nonc1N)c1ccccc1
-10%,3%,O=S(=O)(N/N=C/c1ccccc1OCc1ccc(Cl)cc1)c1ccccc1
-1%,/,CCN(CC1CCCN(CCc2cccc(OC)c2)C1)C(=O)C=C(C)C (stereo not drawn)
-10%,12%,O=C(NNc1ccccn1)C(=O)NNS(=O)(=O)c1ccc(Cl)cc1
0%,10%,CC1=C(C(=O)Nc2ccccc2Cl)C(c2ccc(N(C)C)cc2)NC(=O)N1 (stereo not drawn)
2%,2%,CC(OC(=O)c1nsc(Cl)c1Cl)C(=O)NC(C)(C)C (stereo not drawn)
5%,1%,O=C(O)c1ccc(NC2CC(=O)N(Cc3ccccc3)C2=O)cc1 (stereo not drawn)
-15%,9%,COc1cnc(-c2ccccn2)nc1Sc1ccc(F)cc1
-2%,2%,O=C(NC1CCCCC1)c1cccs1
2%,1%,O=C(O)CC1(CC(=O)Nc2ccc(Br)cc2)CCCCC1
7%,0%,CNC(=O)c1ccc(N(Cc2ccccc2C)S(C)(=O)=O)cc1
17%,0%,O=C(CN1CCCCC1)Nc1cc(Cl)ccc1Oc1ccccc1
-7%,2%,O=S(=O)(c1ccc(Oc2ccc(Cl)cc2)c(S(=O)(=O)N2CCCCC2)c1)N1CCCCC1
19%,1%,Cc1ccc(S(=O)(=O)NCC2CCC(C(=O)NCc3cccs3)CC2)cc1 (stereo not drawn)
9%,-3%,O=C(CC(c1ccccc1)c1ccco1)Nc1nccs1 (stereo not drawn)

Reformatted: results already given.
| Structure | FEN1 inh | TDP1 inh |
| --- | --- | --- |
| COc1cc(C(=O)N2CCN(C3CCCCC3)CC2)cc(OC)c1OC | 21% | / |
| CN(Cc1c(C(=O)N/N=C/c2c(F)cccc2Cl)nnn1-c1nonc1N)c1ccccc1 | -23% | 1% |
| O=S(=O)(N/N=C/c1ccccc1OCc1ccc(Cl)cc1)c1ccccc1 | -10% | 3% |
| CCN(CC1CCCN(CCc2cccc(OC)c2)C1)C(=O)C=C(C)C (stereo not drawn) | -1% | / |
| O=C(NNc1ccccn1)C(=O)NNS(=O)(=O)c1ccc(Cl)cc1 | -10% | 12% |

Next section:
FEN1 inh,TDP1 inh,smiles
-2%,0%,O=C1NC(=O)C(CC(=O)N(c2ccccc2)C2(C(=O)NC3CCCC3)CCCCC2)N1 (stereo not drawn)
-5%,7%,CCn1ncc(C2=NOC(C(=O)N3CCC(C(N)=O)CC3)C2)c1C (stereo not drawn)
-3%,-3%,Cc1ccccc1C(C(=O)NC1CCCCC1)N(C(=O)CNC(=O)c1ccco1)c1cccnc1 (stereo not drawn)
4%,2%,O=C(CSc1ccc2nnc(-c3cccnc3)n2n1)Nc1ccccc1C(F)(F)F
4%,8%,Cc1ccc(S(=O)(=O)N2CCN(S(=O)(=O)N3CCOCC3)CC2)c(C)c1
2%,5%,Cc1ccccc1NC(=O)CN1C(=O)NC2(CCCCC2)C1=O
-15%&-7%,2%&3%,Cc1ccc(N2CC(C(=O)NCc3nnnn3-c3ccc(C)c(C)c3)CC2=O)cc1 (stereo not drawn)
4%,8%,CCN(CC)c1ccc(N=Cc2cc(Br)ccc2O)cc1
-1%,0%,Cn1c(CCC(=O)OCC(=O)NCC(F)(F)F)nc(=O)c2ccccc21
-1%,5%,O=C(CSc1nc2ccccc2c(=O)n1-c1ccc(F)cc1F)Nc1ccc(N2CCOCC2)cc1
1%,-4%,O=C(c1cccs1)N1CCN=C1SCc1cccc(F)c1
-5%,-8%,O=C(CSCc1ccc([N+](=O)[O-])cc1)N/N=C/c1cccnc1
-8%,6%,Cc1ccc(Nc2cc(-n3nc(C)cc3C)ncn2)cc1
1%,12%,Cc1cc2c(OCC(O)CN3CCCC3)cccc2[nH]1 (stereo not drawn)
1%,2%,CC(=O)N1CCOc2ccc(S(=O)(=O)N3CCC(C(=O)Nc4ccc(F)cc4)CC3)cc21
6%,5%,COc1ccc(C(=O)Nc2cc(-c3nn4c(C)nnc4s3)ccc2C)cc1
-6%,-2%,CC(=O)/C=C(\C)Nc1ccc(-c2cnc(-c3ccccc3)o2)cc1
8%,-10%,Cc1ccc(NC(=O)CNC(=O)c2cccs2)nc1
-14%,-3%,C=CCNC(=O)/C(C#N)=C/c1cn(-c2ccccc2)nc1-c1ccc(OC)c([N+](=O)[O-])c1
-1%,0%,COc1cccc(CNC(=O)CCNC(=O)C2CCN(S(=O)(=O)c3ccccc3)CC2)c1
-13%,9%,CCCCN(C)S(=O)(=O)c1ccc(C(=O)Nc2nnc(C3=COCCO3)o2)cc1
-16%,4%,Cc1cc(C(=O)NCCCN2CCN(c3cc(Cl)ccc3C)CC2)n(-c2ccccc2)n1
-3%,/,Cc1cnc(C(=O)N2CCCC(C(=O)c3ccc(C(C)(C)C)cc3)C2)cn1 (stereo not drawn)
-8%,-8%,O=C(Nc1ccc(-n2cnnn2)cc1)c1cn2ccccc2n1
-19%,0%,Cc1nc(Nc2cccc(C(C)O)c2)c2nnn(Cc3ccc(F)cc3)c2n1 (stereo not drawn)
-7%,0%,COc1ccc(CCNC(=O)c2ccc(CS(=O)Cc3ccc(C)cc3)o2)cc1OC (stereo not drawn)
12%,-5%,N/C(=N\OC(=O)c1cc(Br)ccc1Cl)c1cccnc1
-14%,4%[56.1 µM],O=C(CSc1nnc(COc2cccc3ccccc23)o1)N1CCN(C(=O)c2ccco2)CC1
0%,5%,O=C(Nc1cccc(C(=O)N2CCCCC2)c1)c1ccccc1Br
2%,0%,Cc1c(Cl)cccc1NC(=O)CSc1nc(=O)n(CCCN2CCOCC2)c2c1CCC2

Six successive compounds from above:
FEN1 inh,TDP1 inh,smiles
-19%,0%,Cc1nc(Nc2cccc(C(C)O)c2)c2nnn(Cc3ccc(F)cc3)c2n1 (stereo not drawn)
-7%,0%,COc1ccc(CCNC(=O)c2ccc(CS(=O)Cc3ccc(C)cc3)o2)cc1OC (stereo not drawn)
12%,-5%,N/C(=N\OC(=O)c1cc(Br)ccc1Cl)c1cccnc1
-14%,4%[56.1 µM],O=C(CSc1nnc(COc2cccc3ccccc23)o1)N1CCN(C(=O)c2ccco2)CC1
0%,5%,O=C(Nc1cccc(C(=O)N2CCCCC2)c1)c1ccccc1Br
2%,0%,Cc1c(Cl)cccc1NC(=O)CSc1nc(=O)n(CCCN2CCOCC2)c2c1CCC2

Continued:
FEN1 inh,TDP1 inh,smiles
-3%,2%,OC1(C2(O)CC(c3ccccc3)ON2)CCCCC1 (stereo not drawn)
-2%,-1%,CC(=O)c1c(C(C)=O)c(C)n(-c2ccc(O)cc2)c1C
-7%,4%,N#Cc1nc(COc2ccc(-c3ccccc3)cc2)oc1NCCCN1CCOCC1
2%,/,CN(C)c1ccc(/C=N/OC(=O)Nc2ccccc2)cc1
-10%,-1%,COc1ccc(NC(=O)Nc2nnc(C(C)(C)C)s2)cc1
-7%,-8%,c1ccc(Cc2nc(-c3ccccn3)no2)cc1
-4%,9%,Cn1nc(C(F)(F)F)c2cc(C(=O)Nc3ccc(F)c(Cl)c3)sc21
0%,7%,COc1nnc(-c2ccc(N3CCOCC3)c(NC(=O)c3ccco3)c2)c2ccccc12
-10%,1%,CCN(CC(=O)Nc1ccc(NC(C)=O)cc1)C(=O)c1ccccc1SCc1c(C)noc1C
-5%,6%,COC(=O)C1C(=O)CC(C)(O)C(C(=O)OC)C1c1ccccc1F (stereo not drawn)
-6%,6%,CCc1[nH]nc(C(=O)N2CCCC(CNS(=O)(=O)c3cccs3)C2)c1C (stereo not drawn)
-3%,/,CCCCn1nc(NC(=O)c2cccs2)c2cc3ccccc3nc21
11%,/,CCN1CCc2c(sc(NC(=O)Cc3ccccc3)c2C(=O)OC)C1
4%,/,CC(C)CN1CCC(=O)N([C@H](CO)Cc2ccccc2)CC1
-1%,5%,CC1=NN(C(=O)COc2ccccc2C)C(O)(c2ccc(Cl)cc2)C1 (stereo not drawn)
42%[activator],/,O=C1NCCN(C(=O)CCc2nnc(-c3ccsc3)o2)C1c1ccc(F)cc1 (stereo not drawn)
-3%,1%,Cc1c(-c2ccc(F)cc2)[n+](=O)c2c(n1[O-])CCCCC2
?,9%,COc1ccc(NC(=O)c2[nH]c(C)c(C(C)=O)c2C)cc1S(=O)(=O)Nc1ccc(Br)cc1
-9%,0%,O=C(Nc1ccnn1C1CCN(C(=O)c2cc(Cl)ccc2F)CC1)C1CCOC1 (stereo not drawn)
14%&-13%,/,CC(C)(C)C1CCC(=O)N(CCOc2ccccc2)CC1 (stereo not drawn)
0%,7%,C[C@@H]1C[C@H](Nc2ccccc2)c2ccccc2N1C(=O)c1cccnc1
12%,3%,Cc1nnc(NC(=O)CSc2nnc(Cc3cccn3C)n2-c2cccc(C(F)(F)F)c2)s1
4%,8%,OCCCN1CCN(CCOc2ccccc2-c2ccccc2)CC1
-2%,-6%,COc1cc(/C=N/N=C(\N)c2nonc2N)ccc1O
5%,4%,COc1ccc(S(=O)(=O)NN=C2CCCC2)cc1
24%,0%,O=C1COc2ccc(S(=O)(=O)N3CCN(c4cccc(Cl)c4)CC3)cc2N1
1%,1%,COc1cc(C(=O)Nc2cc(Cl)ccc2C)c(-n2cnnn2)cc1OC
2%,0%,CCN1CCN(C(=O)C2CCN(S(=O)(=O)N3CCC4(CC3)OCCO4)CC2)CC1
10%,4%,COc1cccc(/C=C/C(=O)c2cccc([N+](=O)[O-])c2)c1
-1%,2%,CC(CCc1ccccc1)NC(=O)c1cccnc1 (stereo not drawn)

Copied from the list:
FEN1 inh with COc1cccc(/C=C/C(=O)c2cccc([N+](=O)[O-])c2)c1 : 10%
FEN1 inh with OCCCN1CCN(CCOc2ccccc2-c2ccccc2)CC1 : 4%
TDP1 inh with COc1cc(/C=N/N=C(\N)c2nonc2N)ccc1O : -6%

(next part)
FEN1 inh,TDP1 inh,smiles
-8%,2%,Cc1nc(C(=O)N(C)C)nn1-c1cc(Cl)ccc1Cl
8%,5%,CC1CCN(S(=O)(=O)c2ccc3c(c2)N(CC(=O)N(C)Cc2ccco2)C(=O)CO3)CC1
-4%,/,CC(Sc1ncnc2sc(-c3ccccc3)cc12)C(=O)NCC1CCCO1 (stereo not drawn)
-1%,8%,Cc1ccc(C(=O)C2=C(O)C(=O)N(Cc3cccnc3)C2c2ccc(Cl)c(Cl)c2)o1 (stereo not drawn)
-12%,7%,O=C(c1ccc(Cl)cc1)N1CCN(c2ccnc3cc(Cl)ccc23)CC1
4%,7%,COc1ccc(C(=O)NC(=S)Nc2ccc(CN3CCOCC3)cc2)cc1
-1%,2%&11%,c1ccc2c(c1)ccc1ncccc12
5%,0%,Cn1c(Cn2c(=O)sc3ccccc32)nnc1SCC(=O)NC1CCCC1
19%,4%[56.1 µM],O=C(NCc1cccs1)C1CCN(S(=O)(=O)c2cccs2)CC1
1%,0%,O=C(O)CC1S/C(=N/N=C/c2ccc([N+](=O)[O-])cc2)N(c2ccc(O)cc2)C1=O (stereo not drawn)
-10%,/,O=C(CC1(CC2=NS(=O)(=O)c3ccccc3N2)CCCC1)NCCc1ccccc1
-10%,0%,CCOC(=O)Nc1ccc2c(c1)OCO2
18%,/,Cc1coc2c(C)c3oc(=O)c(CCC(=O)NCCCn4ccnc4)c(C)c3cc12
-3%,2%,CCOC(=O)c1c(CC(C)C)csc1/N=C/C1=C(O)CCCC1=O
1%,1%,COc1ccc(CNC(=O)c2ccc(NC(=O)C3CCCO3)cc2)cc1 (stereo not drawn)
12%&13%,-5%,Cn1c(=O)c2[nH]cnc2n(C)c1=O
15%,-2%,c1ccc(NCc2nc(-c3ccccc3)no2)cc1
-1%,3%,CC1CCCC(NC(=O)c2ccc3snnc3c2)C1C (stereo not drawn)
13%,8%,CCc1ccc(OCC(=O)N/N=C(\C)c2ccc(O)cc2O)cc1
0%&-26%,/,O=C1CCN(CCc2ccccc2)CCN1[C@H](COc1ccccc1)c1ccccc1
16%,-7%,O=C(NC1CCCCCCC1)c1cc(F)c(F)cc1Cl
-12%,8%,COC(=O)c1c(C)oc2ccc(N(C(=O)Oc3ccccc3)S(=O)(=O)c3ccccc3)cc12
-1%,3%,Cn1cnnc1SCC(=O)Nc1cc(S(=O)(=O)N2CCCCCC2)ccc1Cl
2%,2%,Cc1cnc(C(=O)NC2CC(C)(C)Cc3c2cnn3-c2ccccc2)cn1 (stereo not drawn)
8%,-5%,CCCOc1nc2ccccc2cc1/C=C/C(=O)O
4%,-2%,O=C(NC1CCCCC1)C(Cc1ccccc1)N1C(=O)C2C3CCC(C3)C2C1=O (stereo not drawn)
0%,5%,CC(C)=NNc1nc(-c2ccc([N+](=O)[O-])cc2)cs1

This is a subset, and most or all hits are left out here.
